# UUG fidelity = alters start codon recognition fidelity in yeast | S. cerevisiae UUG-firefly luciferase reporter, luminescence/redox ratio | activity score, % at 18.7 µM | 0.13% of 350,000 active;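 active = replicate mean at a twofold rise or more, about +100% in these data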;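 note: firefly luciferase made from a UUG start codon reports start codon fidelity; reporter light over untreated wells divided by growth signal over untreated wells; some hits fall short of that in this replicate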
# CSC inhib = cancer stem cell inhibition. cancer stem cell-like cells viability, luminescence. inhibition, % at 7.5 µM. 1.1% of 300,000 active. AID 2717;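 active = mean at 75% or more and at least half the replicates too; inconclusive = mean and replicates disagree; tested in HMLE shEcad cells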;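 note: 0% = median of negative and 100% = median of positive control wells; the first replicate is given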
# PABP FP inh = PABP-poly(A) binding inhibition; P11940; PABP-poly(A) RNA binding, fluorescence polarization; inhibition, % at 35 µM; 1% of 290,000 active; AID 2014;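 active = 50% or more with normal probe brightness, or confirmed in later tests; inconclusive = above 50% with abnormal brightness, or retests that disagree; inactive = below 50% or failed in later tests; about a fifth of its hits are not listed in these tables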;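 note: calls also rest on retests at 20 µM and on dose response follow-up; controls were probe without protein and protein plus probe with vehicle; some compounds called inactive have numbers as strong as hits; many hits fall short of the cut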
# Target sequence (P11940 whole entry, looked up): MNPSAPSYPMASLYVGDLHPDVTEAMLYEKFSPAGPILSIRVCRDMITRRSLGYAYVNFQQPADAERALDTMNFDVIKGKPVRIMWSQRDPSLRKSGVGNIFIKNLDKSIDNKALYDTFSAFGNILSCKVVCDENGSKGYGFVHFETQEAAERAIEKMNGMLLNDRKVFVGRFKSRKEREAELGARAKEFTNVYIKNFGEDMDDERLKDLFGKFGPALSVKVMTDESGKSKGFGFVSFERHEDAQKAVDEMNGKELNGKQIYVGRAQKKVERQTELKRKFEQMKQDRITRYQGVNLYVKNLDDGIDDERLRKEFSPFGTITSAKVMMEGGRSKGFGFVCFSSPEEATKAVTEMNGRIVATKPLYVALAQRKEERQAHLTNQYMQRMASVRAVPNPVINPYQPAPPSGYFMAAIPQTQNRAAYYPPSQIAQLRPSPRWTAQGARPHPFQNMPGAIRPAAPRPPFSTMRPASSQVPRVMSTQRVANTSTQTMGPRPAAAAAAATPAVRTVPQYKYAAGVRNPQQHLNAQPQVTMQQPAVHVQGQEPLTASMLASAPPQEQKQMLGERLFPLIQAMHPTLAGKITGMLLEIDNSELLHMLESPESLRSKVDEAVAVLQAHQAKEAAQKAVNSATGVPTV
# eIF4H FP inh = inhibitors of RNA binding by human eIF4H; inhibition, % at 35 µM; 0.94% of 290,000 active; eIF4H fluorescence polarization binding assay; AID 2012;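 active = 50% or more with normal probe brightness, or confirmed in later tests; inconclusive = above 50% with abnormal brightness, or retests that disagree; inactive = below 50% or failed in later tests; about a fifth of its hits are not listed in these tables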;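 note: calls also rest on retests at 20 µM and on dose response follow-up; 0% = protein and probe with vehicle and 100% = probe without protein; strong numbers were not always called active; many hits fall short of the cut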
# HIV Env fusion = blocks HIV Env-driven cell-cell fusion. HeLa-JRFL Env/CEM21 cell fusion, luciferase. inhibition, % at 12.3 µM. 1.1% of 360,000 active;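 active = mean replicate inhibition score of at least 50 and every replicate individually at or above 50; inconclusive = only one of the two criteria met; inactive = mean below 50 and not all replicates reaching 50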;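 note: 0% = plate neutral controls and 100% = maraviroc near 300 nM; one replicate is shown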
# MT1-MMP act inh = blocks activation of human MT1-MMP; HT1080 RFP-PRO-GFP cells, GFP/RFP ratio fluorescence, overnight; percent of plate control window, DMSO zero; P50281; 0.061% of 360,000 active; GFP/RFP ratio change, % at 20 µM;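 active = GFP/RFP ratio change of at least 30% with cell ATP level not reduced by more than half and red fluorescence within 50% of control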; note: strong numbers were not always called active
#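 Assay system – RFP-PRO-GFP reporter HT1080 cells · Compound dosing – single dose of 20 µM compound, 1% DMSO final · Incubation – overnight compound exposure at 37 °C · Measure – GFP/RFP fluorescence ratio · Benchmarks – DMSO wells and RFP-L50D-GFP cells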
# Rce1 inh = blocks yeast Ras-converting enzyme. Q03530. yeast membranes, quenched prenylated peptide cleavage fluorescence. calls only. 0.27% of 290,000 active;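 active = fall in fluorescence gain of 50% or more versus controls, with final raw signal at or below 3038400; inconclusive = same 50% fall but final raw signal above 3038400; inactive = fall in fluorescence gain under 50%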;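 note: plate controls were neutral control wells for no effect and wells lacking membranes for full effect; tested at 10 µM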
# eIF4H FP inh retest = second read-out of eIF4H FP inh, no call of its own (marks repeat the call); inhibition, %; compound at 20 µM; confirmation average;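 mean of two retest wells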
# PABP FP inh retest = recorded beside PABP FP inh, whose call it bears; inhibition, %; compound at 20 µM; confirmation repeats;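 mean of two retest wells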
# MT1-MMP act inh RFP = also measured in MT1-MMP act inh; calls as there; RFP signal change, %; measured here: RFP expression control read;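 0 = vehicle wells; hits needed this value within 50% of zero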
# Numbers without * were called inactive; i = inactive; ? = inconclusive; / = not tested or not shown; + = active, no number; & = joins results of further samples. Not a hit list. About 3% of those tested had a hit in this group.
SMILES,UUG fidelity,CSC inhib,PABP FP inh,eIF4H FP inh,HIV Env fusion,MT1-MMP act inh,MT1-MMP act inh RFP,Rce1 inh,others
O=C(Oc1cccc(NC(=O)c2ccco2)c1)c1cccc(S(=O)(=O)N2CCCCC2)c1,-10,6,-14,-11,7,8,7,i,
CCOC(=O)C1=NNC2(c3ccc(C)cc3)C(=O)N(c3ccc(Cl)cc3)C(=O)C12 (stereo unspecified),/,-25,2,4,-10,-1,1,i,
O=C(Cc1c(F)cccc1Cl)Nc1ccccc1C(=O)N1CCCCC1,-23,/,/,/,7,4,2,i,
C=CCn1c(COc2ccccc2F)nnc1SCC(=O)N1CC(=O)Nc2ccccc21,-5,-8,-2,-3,-103,3,5,i,
CCCNC(=O)C1(C)CCN(Cc2ccc(OC)c3ccccc23)C1 (stereo unspecified),-2,/,/,/,-215,4,4,/,
O=C(NCc1ccccn1)C(=O)NCC1OCCN1S(=O)(=O)c1ccc(Cl)cc1 (stereo unspecified),-15,3,-6,-2,6,-3,-1,i,
COc1ccc(C(C)=O)cc1CSc1nc(C)cc(C)n1,/,-13,19,-2,-27,-1,3,i,
COc1ccc(-c2nn(-c3ccccc3)cc2C(=O)N2CCOCC2)cc1,-11,/,-2,-7,/,-2,3,i,
COc1cc(/C=N/NC(=O)c2ccncc2)ccc1OC(=O)c1cc(OC)c(OC)c(OC)c1,-9,/,-2,6,0,3,1,+,
Cc1ccc(S(=O)(=O)C(C#N)c2nc3ccccc3nc2N2CCCC2)cc1 (stereo unspecified),/,-2,?,?,/,-23,18,i,
O=C(Nc1ccnn1C1CCN(C/C=C/c2ccc(F)cc2)CC1)C1CCCC1,-13,-5,-4,2,3,-3,-1,i,
COc1ccc(C[C@H]2c3cc(O)c(OC)cc3CC[N+]2(C)[O-])cc1O (stereo partly specified),-4,-17,0,-4,7,5,2,+,
CCCc1cc(C(=O)NCCc2ccc(OC)c(OC)c2)no1,18,-10,0,-5,-44,-2,-1,i,
Cc1cn(-c2cc(C(=O)Nc3ccc(C)c(NC(=O)C(=O)c4c[nH]c5ccccc45)c3)cc(C(F)(F)F)c2)cn1,-7&-3,131*,-1,0,43,-1&-1,1&-3,i,
O=C(COC(=O)Cc1cn2ccsc2n1)Nc1nc2ccccc2s1,-18,3,7,-1,-13,-6,-4,i,
COc1ccc(NC(=O)[C@@H]2CCCN2S(=O)(=O)c2cccc3cccnc23)cc1,-9,-7,/,/,-28,2,0,/,
C[C@H]1CN=C(N(C)C)N1CCc1ccccc1,-17,-2,/,/,-26,-2,-1,/,
CN(C)C(CNC(=O)CSc1nnc(-c2ccco2)o1)c1ccccc1 (stereo unspecified),-13,8,/,/,-80,-3,2,i,
CCOc1ccc(C(=O)C(C)OC(=O)c2cnc(C)cn2)cc1 (stereo unspecified),-1,-5,/,/,-26,2,-1,i,
O=C(c1cc2nc(-c3ccco3)cc(C(F)(F)F)n2n1)N1CCCc2ccccc21,-13,-4,-8,-5,/,2,3,i,
CC1CN(CC(=O)NCc2ccccc2)CC(C)O1 (stereo unspecified),8,9,-1,-4,-3,1,-1,i,
CC(C)=C[C@H]1C[C@H](C)[C@H]2CC[C@H](C)c3c(O[C@@H]4OC[C@@H](O)[C@H](O)C4O)c(O)c(C)c1c32 (stereo partly specified),-1,/,/,/,-11,5,2,/,
COc1ccc(-n2c(=S)[nH]c3cc(C(=O)O)ccc3c2=O)cc1,/,/,19,0,16,-1,2,i,
COc1ccc(OCC(=O)Nc2ccc3c(c2)nc(CCNC(C)=O)n3C)cc1,-18,2,6,-4,0,2,3,i,
O=C1NC(Cc2ccc(O)cc2)c2nc3ccc(F)cc3c(=O)n2-c2ncccc21 (stereo unspecified),-3,/,/,/,11,1,5,/,
CC(=O)N(C)c1ccc(N=Nc2c(C)[nH]n(C(N)=S)c2=O)cc1,/,2,-2,-19,-52,8,6,i,
O=S(=O)(Nc1ccccc1Cl)c1ccc(F)cc1,3,-6,2,3,-10,-3,-1,i,
CCn1c(CCn2c3ccccc3c3ccccc32)n[nH]c1=S,-8,9,9,-1,-6,3,-5,i,
O=C(c1cccc([N+](=O)[O-])c1)c1ccc2c(c1)OCCOCCOCCOCCO2,9,6,5,-2,3,3,-1,i,
Cc1cc(C)cc(NC(=O)C/C(N)=N/O)c1,-44,-14,-3,6,-19,-2,1,i,
COc1cc(/C=C2\SC(=O)N(Cc3ccc(F)cc3)C2=O)cc([N+](=O)[O-])c1O,/,/,21,12,-12,25,-7,/,
O=C(Nc1ccc2nc(-c3ccccn3)c(-c3ccccn3)nc2c1)N1CCOCC1,/,-8,22,13,12,2,9,i,
Cc1cccc(C2N(c3nccs3)C(=O)C3CCCN32)c1 (stereo unspecified),-24,-12,13,0,-46,4,6,i,
Cc1cccc(/C=N/c2sc3c(c2C#N)CCN(Cc2ccccc2)C3)c1O,/,/,-12,57,-118,-62,9,i,eIF4H FP inh retest=3;PABP FP inh retest=6
CCOC(=O)c1c(C)n(C)c2ccc(OC)c(NC(=O)CN3CCC(C(=O)OCC)CC3)c12,/,4,-7,0,0,0,-3,i,
C=C1C(=O)O[C@@]23[C@H]1CC[C@@H](C)[C@@H]2CC[C@@]1(C)O[C@@H]31,-12,17,/,/,/,-4,-7,/,
CN1C(=O)C(C)(C)c2cc(S(=O)(=O)N3CCC(C(=O)NCc4ccc(Cl)cc4)CC3)ccc21,-12,15,6,-4,4,-2,-8,i,
CS/C(=N\NC(N)=O)c1ccccc1,/,-3,11,0,/,4,1,i,
O=C(c1cc(-c2ccccc2O)on1)N1CCCCCC1,-11,2,9,-21,-40,-3,0,i,
O=C(OCc1nnc(-c2ccccc2)o1)c1cn(-c2ccccc2)nc1-c1ccccc1,-10,-3,-16,-4,/,3,0,i,
Cc1ccc(C(C(=O)NCC2CCCO2)N(C(=O)c2snc(C(N)=O)c2N)c2ccc(C)c(C)c2)o1 (stereo unspecified),/,-9,10,-14,-14,-5,-1,i,
Cc1c(C(=O)NCc2ccc(C(F)(F)F)cc2)sc(=O)n1Cc1cccc(F)c1,-8,/,/,/,22,4,-12,/,
CN(C)C(=O)c1ccc(NC(=O)c2ccccc2SCC(=O)N2CCCC2)cc1,-10,-10,/,/,-1,-3,0,/,
C=CCn1c(SCc2cc(=O)n3ccsc3n2)nc2sc(C)c(C)c2c1=O,/,/,4,17,/,/,/,i,
Cc1cc(C)n(CC(=O)Nc2ccc3c(c2)OCO3)c(=O)c1C#N,-9,-11,/,/,-3,2,4,i,
COc1ccc(C(=O)/C(C#N)=N/Nc2ccc([N+](=O)[O-])cc2)cc1,/,18,4,72,15,16,-27,/,eIF4H FP inh retest=-10;PABP FP inh retest=-2
O=C(N/C(=C/c1cn(-c2ccccc2)nc1-c1ccccc1)C(=O)N1CCOCC1)c1ccc(Cl)cc1Cl,-17,-4,0,-1,2,-2,-8,i,
C=C[C@@H]1c2cc(C)ccc2N(S(=O)(=O)c2ccc(C)cc2)[C@H](c2ccccc2)C1(C#N)S(=O)(=O)c1ccccc1 (stereo partly specified),8,9,/,/,48,4,-7,/,
CCOc1ccccc1C(=O)Nc1nnc(C(C)C)s1,-9,11,-4,-6,/,-2,0,i,
Cc1ccc(NCC2(N=Cc3ccccc3)OC(CO)C(O)C2O)cc1 (stereo unspecified),-18,/,/,/,-1,1,6,/,

# The results go on:
SMILES,UUG fidelity,CSC inhib,PABP FP inh,eIF4H FP inh,HIV Env fusion,MT1-MMP act inh,MT1-MMP act inh RFP,Rce1 inh,others
CN(C)CCNC(=O)c1cccc(-c2cnc3c(NC=O)cc(-c4ccc(C(=O)N5CCOCC5)cc4)cn23)c1,-12,/,/,/,-10,6,9,/,
O=S(=O)(/N=C(/Nc1cc(N2CCOCC2)ncn1)c1ccccc1)c1ccccc1,-8,3,7,8,-90,-7,-1,i,
COc1ccc(C(=O)NC2CCN(CC(=O)Nc3c(C)cccc3C)CC2)cc1OC,0,-5,4,0,-27,2,8,i,
CC(=O)c1cccc(N2C(=NC(=O)C3CC3)SC3CS(=O)(=O)CC32)c1 (stereo unspecified),/,-4,3,-14,3,3,2,i,
O=c1c2ccccc2nc(SCc2cccc(F)c2)n1Cc1ccco1,-6,18,0,-5,28,0,-11,i,
COc1ccc2cc(CCNC(=O)c3ccco3)c(=O)[nH]c2c1,-6,-2,-3,-9,-84,-2,0,i,
O=C(O)c1c[nH]c2cc(C(F)(F)F)ccc2c1=O,/,0,1,-12,/,3,4,i,
COc1ccc(C(=O)COC(=O)C2COc3ccccc3O2)c(OC)c1 (stereo unspecified),-9,/,/,/,i,1,4,/,
COc1ccccc1N1CCN(C(=O)CCC(=O)Nc2nnc(CC(C)C)s2)CC1,-4,12,2,-12,7,4,-1,i,
CCOC(=O)C1=C(C)Nc2ccccc2N=C1NC(=O)/C=C/c1ccc(OC)cc1OC,/,-8,3,2,4,-1,2,i,
Cc1nn(-c2ccc(Cl)cc2)c(N)c1C(O)(CSc1nccn1C)C(F)(F)F (stereo unspecified),-6,13,-8,0,-9,-2,-4,/,
CC(=O)N1CCC(=NNC(=O)CSc2cc(C)c(Br)cc2C)CC1,-32,-12,2,-12,-16,-2,2,i,
CC(C)Sc1nc2ccccc2n1CC(=O)NCc1ccc2c(c1)OCO2,-20,7,-4,-4,/,-4,-3,i,
Cc1cccc2cc(CN(CCN3CCCC3)C(=O)NC3CCCCC3)c(=O)[nH]c12,-8,-7,0,-13,/,-1,0,i,
O=C(N/N=C/c1ccccc1C(=O)O)c1ccc(COc2cccc3cccnc23)cc1,/,-15,6,34,10,2,-1,i,
CCCCn1c(N)c(N(CC)C(=O)Cc2ccc(S(=O)(=O)N3CCOCC3)s2)c(=O)[nH]c1=O,-7,-8,/,/,-12,/,/,i,
Cc1cc(F)ccc1S(=O)(=O)N1CCCOC1CNC(=O)C(=O)NC1CC1 (stereo unspecified),-13,7,4,1,1,0,-2,i,
Cc1ccc(S(=O)(=O)N(C)c2ccc(C(=O)Nc3ccccn3)cc2)cc1,/,-13,/,/,/,-1,-11,i,
CCOC(=O)Cn1nc(C)n(-c2ccc(C)cc2)c1=O,-11,-1,-8,-1,-39,2,3,i,
C(=N\Nc1cc(N2CCCCC2)ncn1)/c1ccco1,-11,-7,22,10,-48,-6,-5,i,
Cc1ncc(CSc2nc3ccccc3[nH]2)c(N)n1,-20,-19,9,6,1,1,3,i,
Cc1ccc(S(=O)(=O)N2CCC(=O)CC2)cc1,-16,5,-9,-2,-56,-1,4,i,
CC(NC(=O)Nc1ccc2c(c1)OCO2)C1CCCO1 (stereo unspecified),-13,-3,7,8,-27,-23,4,i,
CS(=O)(=O)Nc1ccc(C2=NN(C(=O)c3cccc(F)c3)C(c3cccs3)C2)cc1 (stereo unspecified),-7,-15,-9,-14,-26,-2,-3,i,
COc1cccc(-c2ncc3ccccc3c2CO)c1,-7,4,/,/,-2,0,-3,/,
Cc1ccc(-c2nnc(CSc3nnc(COc4ccccc4)n3-c3ccccc3)o2)cc1,-28,40,-3,-7,-6,-1,-4,i,
CCCCNC(=O)C1CCC(CNS(=O)(=O)c2c(C)cc(C)cc2C)CC1 (stereo unspecified),-11,-14,8,6,-13,-4,-3,i,

# Compound activity from PubChem BioAssay.
